# Env fusion inh – inhibitors of HIV Env-mediated cell fusion; inhibition, % at 12.3 µM; 1.1% of 360,000 active; AID 651610; HeLa-JRFL Env/CEM21 cell fusion, luciferase;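 active = mean replicate inhibition score of at least 50 and every replicate individually at or above 50; inconclusive = only one of the two criteria met; inactive = mean below 50 and not all replicates reaching 50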;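 also: 0% = plate neutral controls and 100% = maraviroc near 300 nM; one replicate is shown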
# eIF4H FP inh – inhibitors of RNA binding by human eIF4H; eIF4H fluorescence polarization binding assay; AID 2012; inhibition, % at 35 µM; Q15056; 0.94% of 290,000 active;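 active = 50% or more with normal probe brightness, or confirmed in later tests; inconclusive = above 50% with abnormal brightness, or retests that disagree; inactive = below 50% or failed in later tests; about a fifth of its hits are not listed in these tables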;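 also: calls also rest on retests at 20 µM and on dose response follow-up; 0% = protein and probe with vehicle and 100% = probe without protein; strong numbers were not always called active; many hits fall short of the cut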
# CSC inhib – cancer stem cell inhibition; cancer stem cell-like cells viability, luminescence; inhibition, % at 7.5 µM; 1.1% of 300,000 active;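 active = mean at 75% or more and at least half the replicates too; inconclusive = mean and replicates disagree; tested in HMLE shEcad cells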;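 also: 0% = median of negative and 100% = median of positive control wells; the first replicate is given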
# PABP polyA inh – blocks human PABP binding to poly(A) RNA | P11940 | fluorescence polarization | inhibition, % at 35 µM | 1% of 290,000 active | AID 2014;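 active = 50% or more with normal probe brightness, or confirmed in later tests; inconclusive = above 50% with abnormal brightness, or retests that disagree; inactive = below 50% or failed in later tests; about a fifth of its hits are not listed in these tables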;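 also: calls also rest on retests at 20 µM and on dose response follow-up; controls were probe without protein and protein plus probe with vehicle; some compounds called inactive have numbers as strong as hits; many hits fall short of the cut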
# Target sequence (P11940 whole entry, looked up): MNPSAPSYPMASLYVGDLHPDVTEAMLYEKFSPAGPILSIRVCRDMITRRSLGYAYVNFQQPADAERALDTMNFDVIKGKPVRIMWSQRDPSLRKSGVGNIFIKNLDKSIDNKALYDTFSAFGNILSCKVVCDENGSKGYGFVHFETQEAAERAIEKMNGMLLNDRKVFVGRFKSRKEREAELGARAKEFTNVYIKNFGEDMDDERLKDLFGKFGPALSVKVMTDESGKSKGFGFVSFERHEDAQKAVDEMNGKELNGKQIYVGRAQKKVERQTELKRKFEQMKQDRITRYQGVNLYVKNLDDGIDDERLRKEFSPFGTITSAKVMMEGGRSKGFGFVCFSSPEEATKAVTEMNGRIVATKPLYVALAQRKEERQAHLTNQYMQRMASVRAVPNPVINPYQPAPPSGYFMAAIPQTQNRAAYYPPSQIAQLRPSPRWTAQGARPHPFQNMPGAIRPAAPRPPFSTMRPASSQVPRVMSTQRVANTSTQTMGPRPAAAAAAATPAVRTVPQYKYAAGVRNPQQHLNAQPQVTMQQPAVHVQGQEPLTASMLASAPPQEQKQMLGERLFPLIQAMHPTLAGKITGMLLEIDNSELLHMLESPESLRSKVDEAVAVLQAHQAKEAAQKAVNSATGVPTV
# MT1-MMP act inh – MT1-MMP (human) activation inhibition; HT1080 RFP-PRO-GFP cells, GFP/RFP ratio fluorescence, overnight; percent of plate control window, DMSO zero; GFP/RFP ratio change, % at 20 µM; 0.061% of 360,000 active;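 active = GFP/RFP ratio change of at least 30% with cell ATP level not reduced by more than half and red fluorescence within 50% of control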; also: strong numbers were not always called active
#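 Assay system: HT1080 RFP-PRO-GFP cells. Benchmarks: DMSO vehicle wells and RFP-L50D-GFP reporter cell wells. Times: overnight cell settling, then overnight compound exposure, 37 °C, 5% CO2. Compound: 20 µM single dose, 1% DMSO. Read-out basis: GFP/RFP fluorescence ratio.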
# Rce1 inhib – yeast Ras-converting enzyme inhibition; Q03530; yeast membranes, quenched prenylated peptide cleavage fluorescence; calls only; 0.27% of 290,000 active;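 active = fall in fluorescence gain of 50% or more versus controls, with final raw signal at or below 3038400; inconclusive = same 50% fall but final raw signal above 3038400; inactive = fall in fluorescence gain under 50%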;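 also: plate controls were neutral control wells for no effect and wells lacking membranes for full effect; tested at 10 µM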
# UUG fidelity – modulators of start codon recognition fidelity in yeast | activity score, % at 18.7 µM | S. cerevisiae UUG-firefly luciferase reporter, luminescence/redox ratio | 0.13% of 350,000 active;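 active = replicate mean at a twofold rise or more, about +100% in these data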;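 also: firefly luciferase made from a UUG start codon reports start codon fidelity; reporter light over untreated wells divided by growth signal over untreated wells; some hits fall short of that in this replicate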
# eIF4H FP inh retest – second read-out of eIF4H FP inh, no call of its own (marks repeat the call); inhibition, %; compound at 20 µM; confirmation average;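 mean of two retest wells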
# PABP polyA inh retest – also measured in PABP polyA inh; calls as there; inhibition, %; compound at 20 µM; confirmation repeats;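 mean of two retest wells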
# MT1-MMP act inh RFP – second read-out of MT1-MMP act inh, no call of its own (marks repeat the call); RFP signal change, %; measured here: RFP expression control read;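 0 = vehicle wells; hits needed this value within 50% of zero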
# * marks the source's active call; other numbers are inactive results; i = inactive; ? = inconclusive; · = no result given; + = active, no number. Some of the compounds tested; the hit share may differ from the screen's.
SMILES,Env fusion inh,eIF4H FP inh,CSC inhib,PABP polyA inh,MT1-MMP act inh,MT1-MMP act inh RFP,Rce1 inhib,UUG fidelity,others
O=C(NC1CCN(Cc2nnnn2CCc2ccccc2)CC1)c1ccccc1F,-46,-3,8,4,3,5,i,-9,
CS(=O)(=O)N(CC(=O)NC1CCCCCC1)Cc1ccc(Cl)cc1,32,-11,12,-10,16,-1,i,-5,
COCCn1c(N)c(C(=O)NCc2cccs2)c2nc3ccccc3nc21,-12,6,8,5,-8,-2,i,4,
CC(=O)Oc1ccc(N2C(=O)C3C4C=CC(O4)C3C2=O)cc1 (configuration not stated),·,-4,-6,-6,3,5,i,-24,
c1ccc2c(c1)CCCC2NC1=NCCC1 (configuration not stated),-33,-5,·,2,2,2,i,-22,
CN(CC(O)COc1ccc2ccccc2c1)C1CCCCC1 (configuration not stated),3,4,-9,9,-1,-2,i,-3,
Cc1cccc(N(CC(=O)NCCSCc2ccccc2)S(C)(=O)=O)c1C,17,2,-9,8,0,-3,i,·,
CN(CCOc1ccccc1)C(=O)c1cc(COc2c(F)cccc2F)on1,8,-1,9,-4,-2,-1,i,-11,
COc1ccc(C(=O)Nc2cc(C)on2)cc1OC,6,3,4,-3,-3,1,i,58,
CCc1nc(Nc2ccc(N3CCN(C(C)=O)CC3)cc2)c2oc3ccccc3c2n1,·,-10,20,25,-5,-19,+,-5,
Cc1noc(COc2ccccc2OCC(O)CNC(C)(C)C)n1 (configuration not stated),·,-3,-4,-4,4,5,·,-6,
O=C(Nc1ccc(CN2CCOCC2)cc1)c1ccc(Cl)cc1Cl,-27,3,·,2,19,-22,i,0,
O=c1c(Cc2ccc(Cl)cc2)c(O)ccn1Cc1ccccc1,·,-10,2,-9,0,-6,i,-10,
CC(=O)OCC(=O)[C@@]1(O)CC[C@H]2[C@@H]3C[C@H](C)C4=CC(=O)C=C[C@]4(C)[C@H]3[C@@H](O)C[C@@]21C,i,7,-19,0,-9,-4,i,-10,
CON(C)c1nc(NCC(C)C)nc(OCC#N)n1,-40,-5,-19,5,4,1,i,-27,
CC(=O)N(C1=C(O)c2ccccc2C(=O)C1=O)C1CCCCC1,·,-1,-9,-4,10,1,·,4,
CCn1cc(C2=NOC(C(=O)O)C2)c(C)n1 (configuration not stated),·,2,-2,9,10,-2,i,-1,
N#Cc1ccccc1NC(=O)COC(=O)COc1ccccc1[N+](=O)[O-],11,-14,11,-6,5,7,i,·,
Cc1nn(CC(=O)N2CCOCC2)c(=O)c2nn(-c3ccccc3)c(C)c12,4,-7,-7,3,1,1,i,-15,
CCN(c1ccccc1)S(=O)(=O)c1ccc(OC)c(NC(=O)c2cccs2)c1,4,5,46,5,1,2,i,-6,

# Grouped by structure: those above with a thiophene ring, fused or not.
SMILES,Env fusion inh,eIF4H FP inh,CSC inhib,PABP polyA inh,MT1-MMP act inh,MT1-MMP act inh RFP,Rce1 inhib,UUG fidelity,others
COCCn1c(N)c(C(=O)NCc2cccs2)c2nc3ccccc3nc21,-12,6,8,5,-8,-2,i,4,
CCN(c1ccccc1)S(=O)(=O)c1ccc(OC)c(NC(=O)c2cccs2)c1,4,5,46,5,1,2,i,-6,

# Later entries.
SMILES,Env fusion inh,eIF4H FP inh,CSC inhib,PABP polyA inh,MT1-MMP act inh,MT1-MMP act inh RFP,Rce1 inhib,UUG fidelity,others
COC(=O)c1c(-c2ccccc2)c(-c2ccccc2)nn(C)c1=O,-18,-1,-1,-1,3,0,i,-6,
COCCOc1ccc(C(F)(F)F)cc1NC(=O)c1ccc(F)cc1,24,-6,7,-5,-8,2,i,·,
Cc1ccc(C(=O)NCCNC(=O)c2ccco2)cc1C,3,-5,5,0,0,2,i,-37,
O=C(COc1cccc(C(F)(F)F)c1)NNC(=O)Cc1ccc(S(=O)(=O)N2CCOCC2)s1,16,·,·,·,-3,-1,·,-16,
Cc1cccnc1NC(=O)c1ccc(Cl)c(S(=O)(=O)N2CCCCC2)c1,?,·,4,·,1,1,i,-12,
COc1cc(OC)cc(-c2nnc(SCC(=O)N(C(C)C)C(C)C)o2)c1,·,3,23,8,2,0,i,-9,
COc1ccc(S(=O)NC2CCCCC2)c(OC)c1C (configuration not stated),·,-6,3,5,2,4,i,-21,
O=C(CN1C(=O)CCC1=O)Nc1ccc(Br)cc1,-35,-13,-2,-1,3,1,i,-23,
CCOC(=O)c1c(C)[nH]c(C(=O)N(C)Cc2cccc(OC)c2OC)c1C,40,-13,-6,4,6,-4,i,·,
COc1ccc(C(=O)NCCN2CCOCC2)c(OC)c1OC,1,-3,6,-15,3,4,i,-10,
CC(C)CCNC(=O)c1cccc(S(=O)(=O)N2CCc3ccccc32)c1,0,-6,11,0,0,-15,i,-2,
Cc1nc(-c2ccc(Cl)cc2)sc1C1(C)CC(c2c(Cl)cccc2Cl)=NO1 (configuration not stated),1,-1,31,-6,3,-2,i,-4,
CN1CCN(S(=O)(=O)c2cccc(C(=O)Oc3ccccc3Cl)c2)CC1,3,-18,-8,-5,1,4,i,-28,
CCCn1ncc(CN2CCC(Oc3ccc(C(=O)N4CCCC4)cc3)CC2)c1C,-3,7,0,5,1,2,i,-18,
CCNc1nc(NCC)nc(OCCNS(=O)(=O)c2ccccc2)n1,-5,-2,-29,0,3,5,i,4,
CCCCN(CCCC)CCCNC(=O)c1ccc2nc(-c3ccccc3NC(C)=O)c(=O)[nH]c2c1,-22,-1,-1,16,-2,1,i,-15,
N#Cc1ccccc1OCC(=O)OCC(=O)NC1CCCCCC1,0,·,·,·,-1,4,·,15,
O=S(=O)(NCCc1cn2ccccc2n1)c1ccc(F)c(C(F)(F)F)c1,-3,-1,-3,-3,3,5,i,-16,
Cc1ccc(C(=O)OCc2nnc(-c3ccccc3)o2)o1,15,-2,-3,-6,2,5,i,-5,
Cc1ccc2[nH]c3c(=O)n(N)c(=O)[nH]c3c2c1,8,10,-12,-12,6,6,i,-2,
CCN(CC)Cc1c(O)ccc2c(-c3ccccc3)cc(=O)oc12,19,-9,0,4,-4,2,i,0,
Cc1cc(C)c2sc(NC(=O)c3ccc(N4C(=O)CCC4=O)cc3)nc2c1,-1,0,-7,-2,7,-5,i,·,
O=C(NCC1CC1)c1cccc2c1C(=O)c1ccc(-c3ccc(OC(F)(F)F)cc3)cc1S2(=O)=O,-37,·,·,·,6,2,·,-19,
C(=C\c1ccncc1)/c1ccncc1,1,-10,-6,-15,-2,3,i,·,
C=CCn1c(SCC(=O)Nc2ccc3c(c2)OCO3)nc2ccccc2c1=O,11,-1,-7,11,0,-5,i,-18,
CCOC(=O)N/N=C(/C)c1ccc([N+](=O)[O-])o1,·,-2,-8,2,-4,-5,i,-15,
Cc1nc(SCC(=O)NC(=O)NC2CCCCC2)nc(C)c1C,17,8,5,-8,0,2,i,·,
CC(=O)NC(c1ccc(Cl)cc1)c1c(O)ccc2ccc(O)cc12 (configuration not stated),-16,-2,-11,-5,-8,-5,i,·,
O=C(Cn1cc(C(F)(F)F)cc(Cl)c1=O)NCc1ccccc1,-17,4,-13,13,2,6,i,-15,
CCOC(=O)c1sc(N)c(C#N)c1COC(=O)CNC(=O)c1ccccc1,-76,133,-11,126*,2,8,i,-13,eIF4H FP inh retest=44;PABP polyA inh retest=101*
CCC1=C(OC(=O)N(CC)CC)N2C(=O)OC(=NCC3CC3)[C@]2(Cc2ccccc2)[C@H]2C1=CC[C@H]1C(=O)N(c3ccccc3)C(=O)[C@H]12,-121,2,2,-2,-6,-5,i,-7,
Cc1cc(C)cc(NC(=O)NCC(O)COc2ccc([N+](=O)[O-])cc2)c1 (configuration not stated),7,18,10,19,4,2,i,1,
COc1ccc(C2(C)ON(c3ccccc3C(F)(F)F)C2=O)cc1 (configuration not stated),-25,·,7,·,1,-1,·,5,
Cc1ccc(S(=O)(=O)N2C[C@@H]3[C@H]4CC[C@H](C4)[C@@H]3[C@@H](C)[C@@H]2c2cccn2Cc2ccccc2)cc1,-7,·,·,·,-2,-18,·,-17,
C#CCN(C[C@@H]1[C@@H](OC(=O)NCc2ccco2)[C@@H](OC(=O)NCc2ccco2)Cn2c(=O)ccc(=O)n21)S(=O)(=O)c1ccc(C)cc1,29,·,·,·,-7,-4,·,11,
Cc1ccccc1Cn1ccc(NC(=O)c2cnn3c(C(F)(F)F)cc(-c4ccco4)nc23)n1,·,-7,41,-6,4,-4,i,-13,
CCN(CC)S(=O)(=O)c1ccc(N(C)C)c(NC(=O)CSCc2c(C)noc2C)c1,29,-6,4,15,4,0,i,-25,
COC(=O)Cc1ccc(NC(=S)NCc2ccccc2)cc1,-19,-11,2,-3,4,-1,i,-29,
COc1nc(-c2ccccc2)ccc1-c1noc(-c2ccccc2)n1,·,-4,-12,4,4,1,i,-12,
CCN(CC)S(=O)(=O)c1ccc(OC)c(NS(=O)(=O)Cc2ccccc2)c1,43,-5,-11,4,1,-2,i,-23,
CCOc1ccc(NC(=O)CN2CCN(CC(=O)Nc3cc(OC)cc(OC)c3)CC2)cc1,·,-4,-3,4,-1,1,·,-17,
CCOc1ccccc1NC(=O)C1CCCN(C(=O)NCc2ccccc2)C1 (configuration not stated),32,-3,-32,4,-3,-3,i,-12,
CC1CCN(c2nc3c(c(=O)[nH]c(=O)n3C)n2CCCc2ccccc2)CC1,-9,-5,2,-11,1,-2,i,-9,
Cc1sc2ncnc(N)c2c1C,0,4,-20,6,2,3,i,-16,
CN1CCCCc2c1nc1c(c2N)CCCC1,-58,0,15,-10,-3,2,i,-18,
Cn1c(SCC(=O)OC2CCCCC2)nnc1-c1ccco1,·,2,1,30,-8,-2,i,3,
CC(=O)c1cccc(NC(=O)c2cc(-c3cccs3)on2)c1,1,6,-8,0,10,1,i,-21,
CC1CN(C(=S)Nc2ccc(Br)cc2Cl)CC(C)O1 (configuration not stated),4,-5,-8,-3,3,3,i,-29,
CCOC(=O)C1=C(C)N(CC(C)C)C(=O)/C1=C\c1ccc(OCC(=O)Nc2ccccc2)cc1,i,4,40,-9,-5,-3,i,-11,
CC(=O)N1[C@H](Cc2ccccc2)C=C[C@]1(C)C(=O)NCCN1CCOCC1,9,-14,-6,-7,-6,2,i,1,
CCOc1ccc2c(c1)C(C)=CC(C)(C)N2S(=O)(=O)c1ccc(C)cc1,-32,-3,·,4,-10,-17,·,·,
Brc1ccccc1-c1nnc(-c2cccnc2)o1,i,-9,-7,-2,2,1,i,-11,
CC(=O)N(CCCc1ccc(C(C)(C)C)cc1)CCCN(C)C,·,-8,58,-5,6,1,i,·,
COc1ccc(CNC(=O)/C=C/[C@H]2O[C@@H](n3cnc4c(NC(=O)c5ccccc5)ncnc43)[C@H](O)[C@@H]2O)cc1,13,·,·,·,3,2,·,-16,
CCOc1ccc(OCC)c(NC(=O)C2CCCN(S(=O)(=O)c3cccs3)C2)c1 (configuration not stated),·,-5,·,-11,-4,-10,·,-25,
CC(=O)NC1=NN(C(C)=O)C2(CCCCC2)S1,-16,2,10,-2,3,1,i,-8,
CCOc1ccccc1NC(=O)NCCCCc1ccccc1,8,-6,4,3,-2,-2,i,-17,

# Screening data: PubChem BioAssay, several laboratories
